Assay outcomes (PubChem BioAssay)
MT1-MMP reporter: inhibitors of MT1-MMP promoter transcription, cell-based, luciferase reporter, luminescence (AID 618); MT1-MMP promoter luciferase reporter cells, luminescence; calls from a first round at 10 µM; hits with a dose series show EC50 in µM; actives 0.62% (n = 87,000);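 active = over half of the reporter light lost at 10 µM or EC50 under 50 µM; inactive = the rest and hits that failed the dose series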;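 also: actives suppress MT1-MMP promoter-driven transcription so potencies describe inhibitors; HT1080 fibrosarcoma cells; overnight exposure; toxic or luciferase-blocking compounds were not removed from the actives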
Hsc70: Hsc70 inhibitors, probe displacement, primary screen, biochemical, fluorescence polarization (AID 568). Heat shock cognate 71 kDa protein (Homo sapiens). Hsc70 fluorescence polarization, probe displacement; higher % means a stronger effect; strong numbers were not always called active. one-dose displacement, % at 20 µM; IC50 in µM for titrated hits. 83,000 tested, under 10 active;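 active = displacement above 50% without optical interference and an IC50 on retest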;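 also: ATPase domain with a fluorescein-tagged ATP probe; 0% = vehicle and 100% = excess ADP; read after one hour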
WNV NS2B-NS3 inh: inhibitors of WNV NS2B-NS3 protease, primary screen, biochemical, fluorogenic substrate; z-score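 (tested at a level between 10 and 100 µM)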; Genome polyprotein (West Nile virus), P06935; actives 0.18% (n = 65,000); fluorogenic substrate Ex360/Em465; hits give low values;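 active = z-score at -3 or under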;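 also: score is relative to mean and spread of the compound wells of a plate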
Target sequence (P06935 1371-1501 limits assumed): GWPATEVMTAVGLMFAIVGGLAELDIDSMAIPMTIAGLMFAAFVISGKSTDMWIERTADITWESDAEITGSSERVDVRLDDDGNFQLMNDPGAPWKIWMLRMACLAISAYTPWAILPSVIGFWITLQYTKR
Target sequence (P06935 1502-1679 limits assumed): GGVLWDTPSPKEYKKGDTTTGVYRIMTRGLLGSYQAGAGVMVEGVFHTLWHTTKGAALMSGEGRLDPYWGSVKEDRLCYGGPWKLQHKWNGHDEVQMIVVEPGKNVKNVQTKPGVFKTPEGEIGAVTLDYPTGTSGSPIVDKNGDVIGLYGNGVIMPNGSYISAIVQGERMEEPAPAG
Numbers without * were called inactive; i = inactive; · = not tested or not shown. A portion of the library. The share of hits here may be higher or lower than overall.

SMILES | MT1-MMP reporter | Hsc70 | WNV NS2B-NS3 inh
Cc1cc2n(n1)C(c1cccs1)Nc1ccccc1-2 (stereo not given) | i | -0.3% | ·
CC(C)Oc1ccc(C(=O)N(CN2CCCC2=O)c2ccc(F)cc2)cc1 | i | 4.0% | -0.58
O=C(/C=N/O)Nc1ccccc1C(=O)O | i | -1.7% | -0.53
O=C1c2ccccc2-c2nc3ccccc3n21 | i | 1.3% | ·
COc1ccc(CCn2c(C)cc(C(=O)CSc3nnnn3C)c2C)cc1 | i | -0.9% | 0.13
Cc1ccc(-n2c(Cc3cccn3C)nnc2SCC(N)=O)cc1 | i | -3.3% | 0.45
COc1ccc(CC(=O)Nc2ccc(N3CCN(c4ccc(OC)cc4)CC3)c(C#N)c2)cc1 | i | 1.4% | -0.39
Cc1nnc(SCc2cc(=O)n3[nH]cnc3n2)s1 | i | -9.6% | 0.08
CCOc1ccc(C(O)C(CN2CCOCC2)c2ccccc2)cc1 (stereo not given) | i | 5.5% | ·
CCS(=O)(=O)Nc1ccc(C(=O)CC2(O)C(=O)Nc3ccc(Br)cc32)cc1 (stereo not given) | i | 1.9% | -0.16
CCOC(=O)c1cccnc1SCC(=O)N(C)c1ccccc1 | i | -4.6% | 1.2
COc1cc2[nH]cc(C(=O)NCCc3ccccc3)c(=O)c2cc1OC | i | 4.5% | ·
COC(=O)c1[nH]c2cc(C)ccc2c1NC(=O)CN1CCc2cc(OC)c(OC)cc2C1 | i | -3.9% | -0.25
CCCCC1CCC(C(=O)Nc2c(C)n(C)n(-c3ccccc3)c2=O)CC1 (stereo not given) | i | 3.2% | -0.28
O=C(c1cnsn1)N1CCN(c2ccccc2)CC1 | i | 1.7% | 0.56
Cc1ccc(C2C(C#N)=C(N)SC(N)=C2C#N)cc1 | i | -62% | 0.47
COc1ccc(CN2CCNC(=O)C2CC(=O)O)cc1OC (stereo not given) | i | -1.0% | 0.51
CC(C)C(c1nnnn1C(C)(C)C)N1CCOCC1 (stereo not given) | i | -7.2% | ·
CC(NC(=O)c1ccco1)C(c1cccs1)N1CCN(c2ccccc2F)CC1 (stereo not given) | i | 1.8% | -1.7
O=c1c2ccccc2nc2n1CCCS2 | i | -3.7% | -0.01
CC(C)(C)C1CCc2c(sc3c2C(=O)NC(c2ccco2)N3)C1 (stereo not given) | i | -16% | -0.41
Cc1noc(C)c1CSCC(=O)OCC(=O)NC1CCCCC1 | i | -0.3% | 0.28
C=CCn1cc(C(=O)OC)c(=O)c2cc(S(=O)(=O)N3CCC(C)CC3)ccc21 | i | -0.9% | 0.29
CCOC(=O)Cn1nnnc1C(C(C)C)N(Cc1cc2c(C)cc(C)cc2[nH]c1=O)C1CCCC1 (stereo not given) | i | -0.6% | 1.8
Oc1ccc(C=Nc2ccc(N3CCOCC3)cc2)c(O)c1 | i | -5.0% | 2.4

No new results follow: 14 of the compounds above.
SMILES | MT1-MMP reporter | Hsc70 | WNV NS2B-NS3 inh
COc1cc2[nH]cc(C(=O)NCCc3ccccc3)c(=O)c2cc1OC | i | 4.5% | ·
COC(=O)c1[nH]c2cc(C)ccc2c1NC(=O)CN1CCc2cc(OC)c(OC)cc2C1 | i | -3.9% | -0.25
CCCCC1CCC(C(=O)Nc2c(C)n(C)n(-c3ccccc3)c2=O)CC1 (stereo not given) | i | 3.2% | -0.28
O=C(c1cnsn1)N1CCN(c2ccccc2)CC1 | i | 1.7% | 0.56
Cc1ccc(C2C(C#N)=C(N)SC(N)=C2C#N)cc1 | i | -62% | 0.47
COc1ccc(CN2CCNC(=O)C2CC(=O)O)cc1OC (stereo not given) | i | -1.0% | 0.51
CC(C)C(c1nnnn1C(C)(C)C)N1CCOCC1 (stereo not given) | i | -7.2% | ·
CC(NC(=O)c1ccco1)C(c1cccs1)N1CCN(c2ccccc2F)CC1 (stereo not given) | i | 1.8% | -1.7
O=c1c2ccccc2nc2n1CCCS2 | i | -3.7% | -0.01
CC(C)(C)C1CCc2c(sc3c2C(=O)NC(c2ccco2)N3)C1 (stereo not given) | i | -16% | -0.41
Cc1noc(C)c1CSCC(=O)OCC(=O)NC1CCCCC1 | i | -0.3% | 0.28
C=CCn1cc(C(=O)OC)c(=O)c2cc(S(=O)(=O)N3CCC(C)CC3)ccc21 | i | -0.9% | 0.29
CCOC(=O)Cn1nnnc1C(C(C)C)N(Cc1cc2c(C)cc(C)cc2[nH]c1=O)C1CCCC1 (stereo not given) | i | -0.6% | 1.8
Oc1ccc(C=Nc2ccc(N3CCOCC3)cc2)c(O)c1 | i | -5.0% | 2.4

(listing goes on)
SMILES | MT1-MMP reporter | Hsc70 | WNV NS2B-NS3 inh
CC(C)(C)NS(=O)(=O)c1ccc(CCC(=O)O)cc1 | i | -5.1% | -1.1
O=C(NCCOC(=O)c1ccc(C(=O)OCCNC(=O)c2cccnc2)s1)c1cccnc1 | i | 5.4% | ·
Cc1c(Cl)cccc1-n1c(SCC(=O)NCc2cccs2)nnc1-c1ccncc1 | i | -4.2% | ·
Cc1oc(C(=O)O)cc1CSCc1cc(C(=O)O)c(C)o1 | i | -0.8% | 0.46
COCCn1c(SCC(=O)NCc2ccco2)nc2cccnc21 | i | 1.1% | 0.6
CN(C)c1nc(N2CCOCC2)nc(N(c2ccccc2)c2ccccc2)n1 | i | -8.3% | -1.6
CCCn1nnnc1SCC(=O)Nc1ccc(F)cc1 | i | -5.2% | -0.06
CCOC(=O)c1ccccc1NC(=O)CSc1nc(N)cc(N)n1 | i | 1.3% | ·
Cc1cccc(NC(=O)c2cc3ccccc3o2)c1 | i | 2.2% | 0.98
O=c1c2ccccc2nc(-c2ccco2)n1/N=C/c1ccccc1O | i | -0.7% | ·
CC(C)CCn1c(CN2CC(C)OC(C)C2)nc2c1c(=O)n(C)c(=O)n2C (stereo not given) | i | 2.2% | -0.25
CCOC(=O)C1CCN(S(=O)(=O)c2ccc(-c3nc4ccccc4s3)s2)CC1 | i | -11% | -0.42
COc1ccc(C2CC(c3ccccc3)Nc3ncnn32)cc1 (stereo not given) | i | 7.3% | -0.42
Cc1cc(=O)oc2ccc(OCC(=O)N3CCc4ccccc43)cc12 | i | -3.1% | -0.55
Cc1ccc(-c2nc(-c3cccnc3)no2)c(C)c1 | i | 4.4% | 0.42
O=C(c1ccc(Cl)c(Cl)c1)N1CCOCC1 | i | 1.1% | 0.65
Cc1ccc(C)c(Cn2c(=O)n(CCC(=O)NCc3ccco3)c(=O)c3ccccc32)c1 | i | 1.1% | 0.52
Cc1ccc(-n2nc(-c3cccnc3)cc2C(=O)N2CCOCC2)c(C)c1 | i | 5.4% | -0.96
O=C(c1cccc(COc2ccc(Cl)cc2Cl)c1)N1CCN(c2ccccn2)CC1 | 13µM* | -2.5% | 2.3
CCOC(=O)c1ccc(-n2c(C)nc3c(cnn3-c3ccccc3C)c2=O)cc1 | i | -0.3% | -0.51
Cn1c(NCC(O)c2ccccc2)nc2c1c(=O)n(Cc1ccc(Cl)cc1)c(=O)n2C (stereo not given) | i | -2.9% | -0.25
COc1ccc(Cl)c(NC(=O)Cn2nnc(-c3ccccc3N)n2)c1 | i | -2.6% | 0.41
CCN1CCN(C(=O)c2cn(CCOC)c(=O)c3c2c2ccccc2n3C)CC1 | i | -1.2% | -0.06
COc1cc(OC)c(NC(=O)c2ccco2)cc1Cl | i | 4.4% | 0.35
CCCCCOc1ccc(C(=O)N(Cc2ccco2)C2CCS(=O)(=O)C2)cc1 (stereo not given) | i | -0.3% | -0.51

Following part:
SMILES | MT1-MMP reporter | Hsc70 | WNV NS2B-NS3 inh
Nc1cc(C(=O)O)ccc1Nc1ccc(F)c(F)c1 | i | -4.8% | -0.55
CCOC(=O)C1Cc2c([nH]c3ccccc23)C(C)N1 (stereo not given) | i | 0.5% | -0.63
Cc1cc(C(=O)NCc2ccccc2F)cs1 | i | -1.1% | -0.33
COc1ccc(CNC(=O)CSc2ncn[nH]2)cc1 | i | -4.4% | 1.6
CCOc1ccc(-c2nc(C#N)c(N3CCN(C)CC3)o2)cc1 | i | -3.1% | 0.76
O=C(NCC(=O)N(Cc1cccs1)C(C(=O)NC1CCCC1)c1ccncc1)c1ccco1 (stereo not given) | i | -6.9% | 0.34
Cc1sc(NC(=O)c2cccs2)nc1-c1ccccc1 | i | -5.0% | 0.18
COc1ccc(-c2cc(C(=O)NCc3ccccc3)no2)cc1OC | i | -2.3% | 0.95
CN(C)c1[nH]c(=O)c(C#N)c2c1CCN2Cc1ccccc1 | i | -1.6% | -0.75
N/C(=N\OC(=O)Nc1ccccc1)c1ncc(C(F)(F)F)cc1Cl | i | 5.0% | ·
CN(c1cccc(NC(=O)Cc2ccccc2)c1)S(C)(=O)=O | i | -0.3% | 0.11
CCOc1ccccc1NC(=O)c1ccccc1-c1nc(-c2ccccc2)no1 | i | 3.7% | 0.92
Cc1nnc(SCC(=O)N2CCN(S(=O)(=O)c3ccc(Cl)cc3)CC2)[nH]c1=O | i | 4.4% | -0.39
O=C(c1cccc2ccccc12)n1nnc2ccccc21 | i | -4.4% | ·
CC1Cc2ccccc2N1C(=O)c1ccc2c(c1)nnn2C (stereo not given) | i | 4.6% | 0.85
Cc1cc(C)nc(SCc2nnc(SCC(=O)Nc3cc(C(F)(F)F)ccc3Cl)o2)n1 | i | 5.6% | 0.47
COC(=O)c1ccccc1NC(=O)CN1CCN(C23CC4CC(CC(C4)C2)C3)CC1 | i | -0.1% | 0.69
COCCCNC(=O)c1nc2c(nnn2Cc2cc(C)ccc2C)c(=O)[nH]1 | i | 1.6% | ·
O=C(CNCCC1=CCCCC1)Nc1ccc(N2CCCCCC2)cc1 | i | 1.1% | ·
CCCCOc1ccccc1C1NC(=O)NC(C)=C1C(=O)OCc1ccco1 (stereo not given) | i | -6.8% | 1
CN1C(=O)C(O)(CC(=O)c2ccc3c(c2)OCO3)c2ccccc21 (stereo not given) | i | -4.1% | -0.23
CCOC(=O)c1ccc(NC(=O)CC2NCCNC2=O)cc1 (stereo not given) | i | 1.7% | ·
CC(C)c1nc(N2CCOCC2)c(C#N)c2c1CCCC2 | i | -0.3% | 1.2
CCOC(=O)c1oc2c(C)c(O)ccc2c(=O)c1-c1nncn1-c1ccccc1 | i | 0.8% | 0.02
N#CC1=C(SCc2ccccc2)NC(=O)CC1c1ccccc1 (stereo not given) | i | 0.8% | ·

(list continues)
SMILES | MT1-MMP reporter | Hsc70 | WNV NS2B-NS3 inh
O=C(Nc1ccc(Cl)c(Cl)c1)OCc1cncs1 | i | -0.4% | ·
COc1cccc(/C=N/n2c(C)nc3ccccc3c2=O)c1O | i | -1.2% | 1.6
CCOC(=O)C1CCN(C(=O)c2sc3nc(-c4ccccc4)cn3c2C)CC1 | i | -5.3% | 1.7
Cc1cc(=O)oc2cc(OCC3CC(c4ccccc4Cl)=NO3)ccc12 (stereo not given) | i | -1.7% | ·
Clc1ccc2nc(C3CCN(Cc4nnnn4C4CCCCC4)CC3)[nH]c2c1 | i | 5.3% | ·
COc1cc2c(cc1OC)C(c1ccccc1)N(C(=O)c1ccco1)CC2 (stereo not given) | i | 1.6% | -0.09
CC(C)(NO)/C(=N/O)c1ccc(Br)cc1 | i | 5.0% | -0.18
O=C(NCCCN1CCOCC1)c1cc2ccccc2oc1=O | i | -5.4% | -0.74
CCCn1c2ccc(/C(C)=N\O)cc2c2cc(/C(C)=N/O)ccc21 | i | 3.0% | ·
COc1ccc(NC(=O)c2ccccc2SC)cc1OC | i | -5.9% | ·
O=C(NC1CCCCCC1)C1C2C=CC3(CN(Cc4cccnc4)C(=O)C13)O2 (stereo not given) | i | 5.8% | -0.92
Cc1ccc(S(=O)(=O)NC2=C(N3CCN(Cc4ccccc4)CC3)C(=O)c3ccccc3C2=O)cc1 | i | 0.5% | ·
O=S(=O)(Cc1ccccc1)NCC1CCCO1 (stereo not given) | i | -2.5% | -0.5
O=C(OC1CCOC1=O)c1ccc(S(=O)(=O)N2CCCCCC2)cc1 (stereo not given) | i | -1.1% | -0.27
CCN(CC)C(=O)Cn1nc(C)c2ccccc2c1=O | i | -2.3% | ·
Cn1c(=O)cc(SCC(=O)NCCCN2CCN(c3ccccc3F)CC2)c2ccccc21 | i | 2.2% | 0.03
CCOC(=O)CCCCC(=O)c1[nH]c(=O)[nH]c1CSCCO | i | -2.3% | ·
CN(C)c1ncnc2c1NC1=C(S2)C(=NCCCC(=O)O)CC(C)(C)C1 | i | -1.2% | ·
COc1ccc(C)cc1NC(=O)C1CCCN1C(=O)OCc1ccccc1 (stereo not given) | i | 2.7% | -0.2
CCOC(=O)C1=C(C)S/C(=C\N(C)C)C1=O | i | 2.5% | -0.55
CCOC(=O)N1CCN(C(=O)CN(C2CCCCC2)S(=O)(=O)c2c(C)cc(C)cc2C)CC1 | i | 0.1% | ·
COc1ccc(-c2nnc(CSc3nnc(-c4ccncc4)n3C3CCCCC3)o2)cc1OC | i | 2.3% | 0.43
CCCOC(=O)CCNc1n[nH]c(=O)[nH]c1=O | i | -3.9% | -0.56
Cc1cc(NC(=O)CN2CCC(O)(c3cccc(F)c3)CC2)no1 | i | 2.2% | -1.3
COc1ccc(-n2nc3ccccc3n2)cc1 | i | -2.7% | -0.93
CCC(C)NC(=O)CSc1nnc(-c2ccc(C(C)(C)C)cc2)n1C (stereo not given) | i | 0.4% | 0.15
Cn1c(=O)oc2cc(S(=O)(=O)NCCC(=O)N3CCc4ccccc43)ccc21 | i | 7.3% | -1
CN(CC(=O)NCc1ccco1)S(=O)(=O)c1cccc2cccnc12 | i | -1.0% | 0.31
O=C(Nc1cccc(Cl)c1)N(CCCN1CCOCC1)Cc1ccccc1F | i | 3.6% | 0.33
